ClpP mod = qHTS Assay for Activators of ClpP; purified B. subtilis ClpP, FRET peptide cleavage, 20 min; Potency, µM (highest dose often 57.5 µM), without a hit: at the highest dose activity change, negative = active; actives 1.9% (n = 340,000); AID 651965, 2013; active = well fitted falling curve with a large enough effect; inconclusive = small, poorly fitted or top-dose-only effect; inactive = no such curve, though single readings can be large or run the other way; further: the source files actives as falling curves though it sought activators and does not explain the sign; nearly all actives have a fitted effect of over 65% in size; many hits overshoot -100%
Target sequence (P80244 whole entry, looked up): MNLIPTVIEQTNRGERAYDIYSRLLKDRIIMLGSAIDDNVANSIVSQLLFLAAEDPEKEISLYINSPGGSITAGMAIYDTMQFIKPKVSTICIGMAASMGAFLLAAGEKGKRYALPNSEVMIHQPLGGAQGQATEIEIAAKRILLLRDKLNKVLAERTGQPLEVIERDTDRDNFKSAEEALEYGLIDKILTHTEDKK
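FRET quenching reversal measured ClpP activation: 10 microg/mL B. subtilis ClpP at pH 8 with the FRET-FV decapeptide, read at 430 nm after 320 nm excitation. The 20-min minus 0-min signal was scaled between DMSO/no-enzyme wells and ADEP (5.8 microM final).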
* marks the source's active call; other numbers are inactive results; ? = inconclusive; & = joins results of further samples. Potency means the concentration at half of the fitted maximal effect.

SMILES	ClpP mod
COc1cc(OC)cc(-c2cc3nc(C)c(CCC(=O)NCc4ccc(Cl)cc4)c(C)n3n2)c1	4.1%
CCC12CN3CC(CC)(CN(C1)C3c1cc(Br)ccc1OC)C2=O (stereo unspecified)	0.4%
CCc1ccc(N(CC)C(=O)c2cn(C)c(=O)c3cc(OC)c(OC)cc23)cc1	0.3%
Nc1cccc(/C=C/c2ccnc3ccccc23)c1	-0.8%
Cc1ccc(-c2nnc3ccc(SCC(N)=O)nn23)cc1	?
Cc1ccc(/C=C/c2onc(C)c2S(=O)(=O)N2CCC(C(=O)N3CCC(N(C)C(C)C)CC3)CC2)cc1	-3.9%
Cc1cccc(NC(=O)CSc2nc(C3CCCC3)nc3c2c(=O)n(C)c(=O)n3C)c1C	0.1%
COc1ccc(C(=O)CCN(C)C)c2ccccc12	-3.5%
CCOc1ccc(-c2nc(SCC(=O)Nc3cc(F)ccc3F)n3[nH]c(=O)cc3n2)cc1	-27%
Cc1ccc(C)c(Cn2c(=O)n(Cc3ccccc3)c(=O)c3c(C)c(C)sc32)c1	-0.1%
Cc1nc2c(-c3ccccc3)c(C)nn2c(C)c1CCC(=O)N1CCN(c2ccc(F)cc2)CC1	-0.3%
C=Cc1ccc(Cn2c(=O)cc(C)c3c(C)nn(C)c32)cc1	-6.5%
CCN1CCC(N(Cc2ccc(F)cc2)C(=O)Nc2cc(Cl)ccc2C(=O)OC)CC1	1.4%
CCOc1ccc(N(C)C(CNS(=O)(=O)c2ccccc2)c2ccccc2)cc1 (stereo unspecified)	-0.2%
Cc1cccc(N2CCN(C(=O)c3ccc4c(c3)CCN4S(=O)(=O)c3ccccc3)CC2)c1C	-0.8%
N=C(N)c1ccc(-c2ccc(-c3ccc(C(=N)N)cc3)o2)cc1	4.3%
Cc1ccc2c(c1)-c1c(cnn1CC(=O)Nc1ccccc1C#N)CO2	-0.6%
O=C(Nc1c(C(=O)N2CCN(c3ccccc3F)CC2)oc2ccccc12)c1ccccc1F	?
C1=Cc2ccccc2/C1=C\c1cc[cH-]c1.[Fe+2].c1cc[cH-]c1	-2.5%
CC1=Nc2cc(C(=O)NCCc3ccccc3)ccc2Sc2c(C)ccc(C)c21	2.0%
CC1Cc2ccccc2N1S(=O)(=O)c1nnc(NC(=O)c2cccc(F)c2)s1 (stereo unspecified)	-5.3%
O=C(NCCS(=O)(=O)N1CCN(c2ccccc2)CC1)C(c1ccccc1)c1ccccc1	1.5%
CCOc1ccc(CNC(=O)c2cnc3c(C)cccn3c2=O)cc1	?
Cn1c(C(=O)NCCc2ccccc2)cc2cc(S(=O)(=O)N3CCCCC3)ccc21	?

Reprinted at random: seven records from the list, in no set order.
SMILES	ClpP mod
CCN1CCC(N(Cc2ccc(F)cc2)C(=O)Nc2cc(Cl)ccc2C(=O)OC)CC1	1.4%
C1=Cc2ccccc2/C1=C\c1cc[cH-]c1.[Fe+2].c1cc[cH-]c1	-2.5%
CC1Cc2ccccc2N1S(=O)(=O)c1nnc(NC(=O)c2cccc(F)c2)s1 (stereo unspecified)	-5.3%
CC1=Nc2cc(C(=O)NCCc3ccccc3)ccc2Sc2c(C)ccc(C)c21	2.0%
CCOc1ccc(N(C)C(CNS(=O)(=O)c2ccccc2)c2ccccc2)cc1 (stereo unspecified)	-0.2%
O=C(NCCS(=O)(=O)N1CCN(c2ccccc2)CC1)C(c1ccccc1)c1ccccc1	1.5%
Cc1cccc(N2CCN(C(=O)c3ccc4c(c3)CCN4S(=O)(=O)c3ccccc3)CC2)c1C	-0.8%

Part of the list above in order of SMILES length, rising:
SMILES	ClpP mod
CCOc1ccc(N(C)C(CNS(=O)(=O)c2ccccc2)c2ccccc2)cc1 (stereo unspecified)	-0.2%
CC1Cc2ccccc2N1S(=O)(=O)c1nnc(NC(=O)c2cccc(F)c2)s1 (stereo unspecified)	-5.3%
CCN1CCC(N(Cc2ccc(F)cc2)C(=O)Nc2cc(Cl)ccc2C(=O)OC)CC1	1.4%

Remaining list, next part:
SMILES	ClpP mod
O=C(NCCOCCn1c(=O)oc2ccccc21)Nc1ccc(F)cc1F	1.0%
COc1ccccc1N1CCN(c2ncc3c(n2)CCN(Cc2ccccc2C)C3)CC1	0.3%
COc1ccc(S(=O)(=O)c2c(Nc3cccc(Cl)c3)sc(C(=O)c3ccccc3)c2N)cc1	-11%
COc1ccc(CNCCSc2nnnn2-c2ccccc2)cc1	-2.3%
CC(C)NC(=O)C1CCCN(c2ncnc3onc(-c4ccc(F)cc4)c23)C1 (stereo unspecified)	1.7%
CCc1ccc(CNC(=O)c2cnc3sc(N4CCOCC4)nn3c2=O)cc1	3.2µM*
Cc1ccc(CN(C(=O)COc2ccc(Br)cc2)c2ccccn2)o1	1.9%
Cc1ccc(C(=O)Oc2cc(-c3ccc4c(c3)OCO4)cc(=O)c3c(C)oc(C)c23)cc1	-0.2%
CCC1CN(C(=O)N2CCC(C(=O)N(C)Cc3ccccc3)CC2)c2ccccc2O1 (stereo unspecified)	0.3%
COc1cc2ccccc2cc1C(=O)N1CCN(c2nc3c(C)cc(C)cc3s2)CC1	-19%
COc1ccc(NC(=O)CSc2nncn3c2cc2occc23)c(OC)c1	1.0%
CC(=O)Nc1ccc(Nc2ccc3cc(S(=O)(=O)N4CCCCC4)ccc3n2)cc1	-14%
COc1cccc(NC(=O)c2cc3c(-c4ccc(Cl)cc4)nn(C)c3s2)c1	4.4%
O=C(NCCCCc1ccccc1)c1nn(-c2ccccc2F)nc1CO	-3.0%
Cc1ccccc1NC(=O)c1cc2c(-c3ccccc3)nn(-c3ccccc3)c2s1	?
Cc1cccc(OCCCCn2c(C3CC(=O)N(c4ccc(C)cc4C)C3)nc3ccccc32)c1 (stereo unspecified)	-29%
COc1ccc(-c2c(C)c3ccc(O)c(CN4CCCC4)c3oc2=O)cc1OC	4.0%
COc1cc(-c2noc(CSc3nc(-c4ccc(F)cc4)cc(=O)[nH]3)n2)cc(OC)c1OC	-1.6%
CCOc1ccc(N(C(=O)c2ccc(Cl)cc2)S(=O)(=O)c2ccc3c(c2)n(C)c(=O)n3C)cc1	1.3%
CC(=O)c1cccc(NC(=O)[C@H]2O[C@@H]3OC(C)(C)O[C@@H]3[C@H]3OC(C)(C)O[C@H]32)c1	0.5%
COc1ccc(CNC(=O)C2CCN(S(=O)(=O)c3ccc(F)cc3)CC2)cc1	-0.4%
CCCCCCCCCC[n+]1cc(Br)cc(Br)c1	-0.2%
CCOc1ccc(S(=O)(=O)Nc2ccc3c(c2)CCCN3S(=O)(=O)c2ccc(C)cc2)cc1	-1.6%
COc1ccc(NC(=O)CCCc2nnc3n(CCC(C)C)c(=O)c4sccc4n23)c(OC)c1	1.1%
Nc1nc(=S)c2n[nH]nc2[nH]1	6.4%&-0.7%
COC(=O)c1ccc2c(c1)N(CC(=O)Nc1ccc(C)cc1Cl)C(=O)c1ccccc1S2	-3.9%
O=C(c1ccccc1)n1nc(-c2ccco2)nc1NCc1cccs1	1.3%
CCOC(=O)C1CCCN(C(=O)c2c(C)nn(-c3ccc(F)cc3)c2-n2cccc2)C1 (stereo unspecified)	0.0%
CCCCc1nn2c(=O)cc(COC(=O)c3ccccc3C)nc2s1	-1.2%
COc1ccc(NC(=O)Cc2noc3ccc(C)cc23)cc1Cl	-6.6%
Cc1ccccc1OCCn1c(=N)n(C(C)C)c2ccccc21	-1.6%
CCCCCCCCCCCCCCCCCCN(CCCCCCCCCCCCCCCCCC)c1ccc(/C=C/c2ccc(C=O)cc2)cc1	0.7%
CCOc1ccc(NC(=O)CS(=O)(=O)Cc2nc(-c3ccc(C)cc3)oc2C)cc1	-10%
COc1ccc(-n2ncc3c2ncn2nc(Cc4ccccc4)nc32)cc1	-4.1%
COc1ccc(/C=C\c2onc(C)c2S(=O)(=O)N2CCC(C(=O)Nc3ccc(C)cc3C)CC2)cc1	-7.5%
O=C(NC1CC(=O)N(c2ccc(F)cc2)C1)C1CC1 (stereo unspecified)	-2.0%

2 consecutive entries already listed:
SMILES	ClpP mod
COc1cc(OC)cc(-c2cc3nc(C)c(CCC(=O)NCc4ccc(Cl)cc4)c(C)n3n2)c1	4.1%
CCC12CN3CC(CC)(CN(C1)C3c1cc(Br)ccc1OC)C2=O (stereo unspecified)	0.4%

New compounds follow.
SMILES	ClpP mod
CCOC(=O)c1cc(-c2ccc(OC)c(S(=O)(=O)N3CCN(c4ccccc4)CC3)c2)on1	-5.3%
COc1ccc(-n2c(-c3ccc(F)cc3)cn3c4c(=O)n(C)c(=O)n(C)c4nc23)cc1	1.5%
COc1ccc(-c2cc3c(=O)n(CC(=O)Nc4ccccc4C(F)(F)F)ccn3n2)cc1OC	-3.7%
COc1ccc(Cl)cc1NC(=O)[C@H]1O[C@@H]2OC(C)(C)O[C@@H]2[C@H]2OC(C)(C)O[C@H]21	?
COc1ccc(S(=O)(=O)N2CCN(Cc3ccc4c(c3)OCO4)CC2)cc1C	-2.5%
COc1cc(NS(=O)(=O)c2ccc(NC(=O)c3ccc(Cl)cc3Cl)cc2)nc(OC)n1	1.0%
O=C(NC1CC(=O)N(c2ccccc2)C1)C1CCCC1 (stereo unspecified)	-4.4%
O=C(Nc1ccc(Cl)cc1)N1CCC(CN2CCCC2)CC1	-0.6%
Cc1c2cnn(-c3ccccc3)c(=O)c2c(C)n1CCCC(=O)Nc1ccc(F)cc1F	-4.4%
Cc1ccc(NC(=O)C(=O)NCC(c2cccnc2)N2CCN(C)CC2)cc1F (stereo unspecified)	-1.2%
Cc1ccc(CNC(=O)c2cnc3c(-c4ccc(F)cc4)c(C)nn3c2C)o1	-0.6%
COc1ccc(Cn2ccc3nc(C)c(C(=O)NCc4ccc(C)cc4)cc3c2=O)cc1	56%
CCc1ccc(S(=O)(=O)c2c[nH]c3cc(OC)c(OC)cc3c2=O)cc1	-22%
CCN(CC)CCNC(=O)Cn1ncc2c3ccccc3n(Cc3ccccc3C)c2c1=O	4.6%
Cc1cccc(NC(=O)CSc2ncc3c(n2)-c2ccccc2N(Cc2ccc(F)cc2)S3(=O)=O)c1C	3.6%
O=C(CSc1nc2c([nH]c3ccccc32)c(=O)n1-c1ccccc1)Nc1ccccc1C(F)(F)F	-10.0%
O=C(Cn1c(=O)n(Cc2ccc(F)cc2)c(=O)c2sc3ccccc3c21)NCc1ccccc1Cl	-6.1%
CCOCCCn1c(=N)c(C(=O)NC(C)c2ccccc2)cc2c(=O)n3cc(C)ccc3nc21 (stereo unspecified)	4.3%
Cn1nc(-c2ccccc2F)c2cc(C(=O)NCc3ccc(Cl)cc3)sc21	4.3%
COc1ccc(CNc2n[nH]c(-c3ccco3)n2)cc1OC	-1.5%
CCS(=O)(=O)N1CC(=O)N(c2ccc(Cl)cc2)C(C)(C(=O)NC2CCCCCC2)C1 (stereo unspecified)	-3.3%
Cc1ccc(-c2nc3cnccn3c2Nc2ccc(C(C)C)cc2)o1	-9.1%
Cc1ccc(S(=O)(=O)N2CCC(C(=O)Nc3ccc(C)c(Cl)c3)CC2)cc1	-4.5%
CCCN1C(=O)c2[nH]nc(-c3cccc(OC)c3)c2C1c1ccccn1 (stereo unspecified)	-11%
Cc1ccc(CN2CCN(C3CCN(C(=O)Nc4ccc(C)cc4Cl)CC3)C(=O)C2=O)cc1	-1.0%
O=C(COc1ccccc1)Nc1nnc(SCc2cc(=O)n3cc(Cl)ccc3n2)s1	-0.3%
Cc1cccc(NC(=O)CSc2nc3n[nH]c(C)c3c(=N)n2-c2cccc(Cl)c2)c1	?
Cc1cccc(C)c1NC(=O)Cn1nnc(S(=O)(=O)c2ccccc2)c1N	-9.9%
O=C(COc1ccc(Cl)cc1)NCCc1csc(-c2cccc(F)c2)n1	4.3%
CCC(=O)N1CCc2cc(Br)cc(S(=O)(=O)N3CCCC(C(=O)Nc4ccc(CC)cc4)C3)c21 (stereo unspecified)	-0.1%
Brc1ccc2nc(-c3ccccc3)c(Nc3ccc4c(c3)OCO4)n2c1	-1.3%
Cc1noc(/C=C/c2ccccc2F)c1S(=O)(=O)N1CCC(C(=O)Nc2ccc(C#N)cc2)CC1	?
O=C(CSc1nc(=O)[nH]c2c1CCCC2)Nc1ccccc1C(F)(F)F	-2.8%
CCN(CC)CCNC(=O)c1[nH]c2ccccc2c1Sc1ccc(Cl)cc1	-2.6%
Cc1ccc(NC(=O)CCc2c(C)nc3ncnn3c2C)cc1Cl	0.0%
Cc1oc(-c2ccc(C(=O)NCc3ccccc3)cc2)nc1CS(=O)(=O)c1ccccc1	4.0%
Cc1cc(C)c(C)c(OCC(=O)Nc2ccc(S(=O)(=O)Nc3nc(C)cc(C)n3)cc2)c1	-2.9%
O=C(NCCC1=CCCCC1)c1ccc2c(c1)N(Cc1ccccc1F)C(=O)c1ccccc1S2(=O)=O	-0.2%
CCOC(=O)N1CCN(C(=O)c2c(C)nn(-c3cccc(C)c3)c2-n2cccc2)CC1	-0.6%
COc1ccc(NC(=O)c2csc3c2CCCCC3)cc1	0.4%
COc1ccc(-c2noc(CC(=O)Nc3ccc(F)cc3F)n2)cc1	-0.2%
Cc1cccc(CCNC(=O)CCc2c(C)nc3c(c(C)nn3-c3ccccc3)c2C)c1	32µM*
COc1ccccc1NC(=O)c1nc(SCc2ccccc2F)ncc1Cl	-4.2%
Cc1ccc2[nH]c3c(=O)n(CC(=O)N4CCCCC4)ncc3c2c1	-21%
Cc1cc(F)ccc1NC(=O)CCS(=O)(=O)c1cccc2nsnc12	-0.9%
CCOc1ccc(C(=O)NCCc2sc3nc(-c4ccc(Cl)cc4)nn3c2C)cc1OCC	-3.0%
CCOC(=O)Cn1nc(N2CCN(c3ccc(F)cc3)CC2)ccc1=O	0.9%
COc1cc(NC(=O)NCCc2c(C)nn(C)c2C)cc(OC)c1OC	-0.9%
CC1CN(C(=O)N2CCC(C(=O)NC3CCCCCC3)CC2)c2ccccc2O1 (stereo unspecified)	-1.1%
COc1ccc(CCNC(=O)c2cc(=O)c3cc(C)c(C)cc3o2)cc1OC	0.2%
Cc1cccc(N2CCN(C(=O)CS(=O)(=O)c3cccc4nsnc34)CC2)c1C	-0.3%

The list is partial; the hit share may differ from the screen's.
